# Arbovirus inh – antivirals against arbovirus infection, primary screen, cell-based, full library, 10K replicate subset | arbovirus infection cell-based antiviral screen | inhibition, % at 10 µM | actives 0.37% (n = 200,000) | AID 1251, 2008;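 active means inhibition from about 30%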;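 further: bluetongue infection of BSR cells; cell survival read as ATP light after 72 h; 0% = infected wells without compound and 100% = uninfected wells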
# Mtb growth – M. tuberculosis H37Rv growth inhibitors, H37Rv strain (AID 1626); M. tuberculosis H37Rv growth inhibition; higher % means a stronger effect; inhibition, % at 10 µM; hits with a dose series show IC50 in µM; actives 0.95% (n = 220,000);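 active means confirmed in a dose series; inconclusive means inhibition above 80% but not taken into the dose series; inactive means below 80% or under 30% at every dose of the series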;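 further: bacteria incubated seven days before Alamar blue readout; 0% = bacteria only wells and 100% = bacteria with antibiotic wells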
# RecA intein inh – Mtb RecA intein splicing inhibitors, primary screen, biochemical, fluorescence, HTS | cell-free RecA intein splicing | Protein RecA (Mycobacterium tuberculosis (strain ATCC 25618 / H37Rv)), P9WHJ3 | actives 0.75% (n = 290,000) | inhibition, %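 (about 9 µM by stock and volumes)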; in the data active means inhibition above about 30%; inconclusive means no clear call, values can overlap the other calls;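 further: 0% = vehicle wells and 100% = reference inhibitor control wells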
# Target sequence (P9WHJ3 whole entry, looked up): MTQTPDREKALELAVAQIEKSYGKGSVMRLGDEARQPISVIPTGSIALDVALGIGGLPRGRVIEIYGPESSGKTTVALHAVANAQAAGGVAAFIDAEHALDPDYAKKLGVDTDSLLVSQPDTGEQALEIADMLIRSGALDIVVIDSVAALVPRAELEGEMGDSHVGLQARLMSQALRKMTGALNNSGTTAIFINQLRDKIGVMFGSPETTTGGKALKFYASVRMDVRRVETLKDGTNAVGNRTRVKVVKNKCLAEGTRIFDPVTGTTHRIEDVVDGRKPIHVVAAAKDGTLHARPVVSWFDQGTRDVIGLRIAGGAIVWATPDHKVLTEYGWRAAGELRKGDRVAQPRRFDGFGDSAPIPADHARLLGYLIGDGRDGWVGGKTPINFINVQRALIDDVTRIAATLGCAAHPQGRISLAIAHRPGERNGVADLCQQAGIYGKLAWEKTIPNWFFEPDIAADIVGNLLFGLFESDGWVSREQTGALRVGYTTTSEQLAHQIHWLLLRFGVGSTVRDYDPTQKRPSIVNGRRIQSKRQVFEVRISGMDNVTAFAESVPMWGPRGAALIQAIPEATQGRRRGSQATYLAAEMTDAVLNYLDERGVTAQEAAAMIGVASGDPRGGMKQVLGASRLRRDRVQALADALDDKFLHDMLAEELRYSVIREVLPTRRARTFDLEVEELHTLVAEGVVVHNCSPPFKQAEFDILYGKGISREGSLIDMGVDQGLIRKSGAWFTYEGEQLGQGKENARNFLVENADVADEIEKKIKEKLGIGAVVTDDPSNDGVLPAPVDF
# YopH inh – YopH tyrosine phosphatase inhibitors, primary screen, biochemical, fluorescence Ex485/Em525 | YopH tyrosine phosphatase [Yersinia enterocolitica] | inhibition, %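 (about 10 µM by stock and volumes)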 | actives 0.16% (n = 140,000) | AID 898, 2007;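 active means inhibition of 50% or more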;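 further: controls were vehicle for no effect and minimum signal wells for full effect; inactives centre near -20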
# Mtb betalactam – beta-lactam sensitization of Mtb H37Rv, H37Rv. AID 434955, 2010. actives 0.27% (n = 330,000). M. tuberculosis H37Rv growth with meropenem, percent inhibition; hits of this screen are not shown here. inhibition, % at 25 µM;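 active means about 74% or more and at least 40 points above the plate without the antibiotic, then above 30% in a dose series; inconclusive means first-round hits that could not be retested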;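 further: growth measured after seven days incubation then overnight dye step; 0% = bacteria only wells and 100% = bacteria with antibiotic; twin plates without the antibiotic show which effects depend on it; some results filed as inactive read as strong as hits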
# Arbovirus inh repeat – recorded beside Arbovirus inh, whose call it bears; inhibition, %; measured here: 10K subset replicate screen; many hits read low in the repeat;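 first of two repeat runs on a subset; 0% = infected and 100% = uninfected wells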
# * marks the source's active call; other numbers are inactive results; ? = inconclusive; / = no result given. An excerpt (hit frequency here may not be typical).
SMILES,Arbovirus inh,Mtb growth,RecA intein inh,YopH inh,Mtb betalactam,others
CCO[C@H]1OC(C(=O)N2CCCCCCC2)=C[C@@H](C2CCCCC2)[C@@H]1CCCO,-2,3%,4.5,/,6,
CC1=C(C(=O)O)N2C(=O)C(NC(=O)Cc3ccccc3)C2SC1 (stereo unspecified),/,/,-2.4,/,-9,
Cc1ccc(/C=N/NC(=O)c2nnn(-c3nonc3N)c2CN(C)C)o1,/,/,-2.2,/,-5,
Cn1c(SCc2ccc(F)cc2)nnc1-c1ccncc1,/,/,-4.2,/,-7,
O=[N+]([O-])c1nn(-c2ccc3c(c2)OCCO3)n(O)c1=Nc1ccccc1,-15,10%,-0.9,-21,5,
CC(C)(C)n1nc2c(c1NC(=O)c1ccccc1S(=O)(=O)C(F)F)CS(=O)(=O)C2,/,/,-1.0,/,-10,
O=C(NC1CCCCC1)N1CCN(c2ccccc2)CC1,-9,-1%,8.3,-24,-2,
O=C(NN=C1CCCC1)c1cccs1,7,5%,-0.7,-26,/,
O=c1[nH]c2cc([N+](=O)[O-])c(NCCO)c([N+](=O)[O-])c2[nH]1,-5,-4%,/,/,6,
COC(C[C@H]1O[C@H]1[C@@H](O)[C@@H](C)OCc1ccccc1)OC,/,-118%,3.4,/,/,
C/C(=N\NC(=O)c1nn(C)c(C)c1Br)c1ccc(NC(=O)c2ccc(C)s2)cc1,-9,2%,2.8,/,13,
COC(=O)c1c(NC(=O)Cc2cccs2)sc(C)c1C,-10,6%,0.2,-16,25,Arbovirus inh repeat=-3
CS(=O)(=O)c1ccc(Cl)c(NC(=O)COC(=O)c2cccc(C#N)c2)c1,11,2%,/,/,-6,
CC1=C(C(=O)OC2CCCCC2)C(c2cccc([N+](=O)[O-])c2)NC(=O)N1 (stereo unspecified),/,/,-0.3,/,6,
CCCCCOC(=O)c1ccc(OC(=O)c2cncc(Br)c2)cc1,4,12µM*,16,-2,98,
Cc1sc(NC(=O)CSC2=NCCS2)nc1-c1ccccc1,2,0%,45*,-10,66,
COc1ccc(-n2nnnc2SCC(=O)NCCc2ccccc2)cc1OC,-3,3%,-1.3,/,-8,
Cc1cccc(C)c1NC(=O)c1cn(-c2ccccc2)nc1-c1ccccc1,2,5%,-2.3,-38,6,
CCCCNC(=O)Cn1c(=O)c2c(ncn2CC)n(Cc2ccccc2)c1=O,/,/,0.5,/,-1,
CN(C)CCCNC(=S)N(CCCO)Cc1cc2cc3c(cc2[nH]c1=O)OCO3,/,/,-1.5,/,2,
CCOC(=O)CN1C(=O)COc2ccc(C(C)(C)C)cc21,1,8%,4.9,-27,/,
CCc1ccc(CN(C)C(=O)c2ccc3c(=O)n4c(nc3c2)CCC4)cc1,/,/,-1.1,/,-5,
O=C(O)c1cccc(NC(=S)N/N=C/c2ccccn2)c1,0,-2%,-5.9,/,3,
Cc1cc(S(=O)(=O)N2CCC(NC(=O)C34CC5CC(CC(C5)C3)C4)CC2)ccc1-n1cnnn1,-2,6%,/,-4,4,
COc1ccc(C2=NS(=O)(=O)N(C)C(C(=O)NCc3ccccn3)=C2)cc1,/,/,-2.7,/,0,
COc1ccc2nc(NC(=S)N(C)C)sc2c1,-14,?,-0.7,-20,97,
CC(=O)Nc1ccc(NC(=O)CN(c2ccccc2Cl)S(C)(=O)=O)cc1,-6,-4%,3.6,-25,2,
Cc1cccc(CS(=O)(=O)Cc2ccc(C(=O)NCc3ccccc3)o2)c1,/,/,-3.0,/,-6,
CCCCC(=O)Nc1ccc(C(=O)NCC(=O)OC)cc1,4,-1%,-0.1,25,-14,
O=C(NC1CC1)C1=C[C@@H](c2csc3ccccc23)C[C@@H](OCCCCO)O1,/,-6%,4.6,/,0,
COc1ccc2c(c1)c(=O)oc1c(C)c(OC(C)C(=O)NCC3CCC(C(=O)O)CC3)ccc12 (stereo unspecified),/,/,-5.1,/,-6,
O=C(CSc1ccc2nnc(-c3ccccn3)n2n1)Nc1ccccc1C(F)(F)F,/,/,-5.0,/,?,
Cc1nc(N2CCN(c3ccccc3)CC2)nc2c1C(=O)CC(C)C2 (stereo unspecified),-9,8%,-6.4,-28,-15,
C=CCOC(=O)C1=C(C)Nc2ncnn2C1c1cc(Br)ccc1F (stereo unspecified),11,-4%,-2.2,-12,0,
O=C(O)CCC(=O)NN1C(=O)c2ccccc2NC1c1ccco1 (stereo unspecified),/,-6%,-1.5,/,-2,
C#CCn1c(C)cc(C)c(S(=O)(=O)c2ccccc2)c1=O,2,5%,-1.6,/,-6,
CCN(CC)CCN=C(C)c1c(O)n(-c2ccccc2OC)c(=O)[nH]c1=O,2,-12%,1.3,-32,-8,
CCOC(=O)N1CCN(S(=O)(=O)N2CCCC(C(=O)NCCc3ccc(Cl)cc3)C2)CC1 (stereo unspecified),/,/,2.2,/,-5,
CS(=O)(=O)N1CCc2cc(C(=O)Nc3ccc(COCC(F)(F)F)cc3)ccc21,/,/,-1.5,/,-9,
CC1=C(C(=O)Nc2cccnc2)C(c2ccc(C(C)C)cc2)n2ncnc2N1 (stereo unspecified),0,1%,-1.2,-9,/,Arbovirus inh repeat=6

# The list goes on; it opens with the 6 that closed the last part.
SMILES,Arbovirus inh,Mtb growth,RecA intein inh,YopH inh,Mtb betalactam,others
O=C(O)CCC(=O)NN1C(=O)c2ccccc2NC1c1ccco1 (stereo unspecified),/,-6%,-1.5,/,-2,
C#CCn1c(C)cc(C)c(S(=O)(=O)c2ccccc2)c1=O,2,5%,-1.6,/,-6,
CCN(CC)CCN=C(C)c1c(O)n(-c2ccccc2OC)c(=O)[nH]c1=O,2,-12%,1.3,-32,-8,
CCOC(=O)N1CCN(S(=O)(=O)N2CCCC(C(=O)NCCc3ccc(Cl)cc3)C2)CC1 (stereo unspecified),/,/,2.2,/,-5,
CS(=O)(=O)N1CCc2cc(C(=O)Nc3ccc(COCC(F)(F)F)cc3)ccc21,/,/,-1.5,/,-9,
CC1=C(C(=O)Nc2cccnc2)C(c2ccc(C(C)C)cc2)n2ncnc2N1 (stereo unspecified),0,1%,-1.2,-9,/,Arbovirus inh repeat=6
N#CC1=C(N)C(C#N)(C#N)[C@H](c2c(F)cccc2F)[C@H]2CC3(CC=C12)OCCO3,-11,3%,35*,-23,2,
CC1=C(C(=O)OCC2CCCO2)C(c2ccc(O)cc2)NC(=O)N1 (stereo unspecified),-2,1%,2.8,-15,-2,
Cc1cccc(C)c1NC(=O)C(c1ccc([N+](=O)[O-])cc1)N1CCCCC1 (stereo unspecified),-3,1%,5.3,-38,-3,
N#CCC(=O)Nc1ccc(C(=O)OCC(=O)NCCCc2ccccc2)cc1,/,/,-0.7,/,5,
CCN(CC)CCOc1c(Br)ccc2c1sc1nc3n(c(=O)c12)CCC3,30,3%,-3.3,-4,1,Arbovirus inh repeat=6
CCOC(=O)C1CCCCN1C(=O)c1ccc2nc(Cc3ccc(OC)cc3)oc2c1 (stereo unspecified),/,/,3.9,/,0,
CS(=O)(=O)CCC(C(=O)OCc1ccc(Cl)cc1)N1C(=O)c2ccccc2C1=O (stereo unspecified),2,6%,0.2,-32,-5,
CCOC(=O)c1c(C)[nH]c(C(=O)COC(=O)CCC(=O)c2ccc3c(c2)OCCO3)c1C,-5,0%,-3.8,-14,1,
Nc1ccc(OCc2ccccc2)cc1,-15,78%,1.7,6,-5,Arbovirus inh repeat=-10
COC(=O)CN1C(=O)C(O)(CC(=O)c2ccccc2)c2ccccc21 (stereo unspecified),-8,-2%,3.3,-35,-15,
CC(C)CN(C(=O)COC(=O)CCCc1c[nH]c2ccccc12)c1c(N)n(Cc2ccccc2)c(=O)[nH]c1=O,/,/,-2.0,/,0,
O=C(c1cc(-c2ccc(Cl)c(Cl)c2)on1)N1CCCCCC1,/,/,-0.7,/,2,
COc1ccc(OCc2cccc(C(=O)Nc3ccc(CN4CCCCC4)cc3)c2)cc1,-33,5%,0.8,-21,-4,
Cc1nn(Cc2ccc(F)cc2)c(C)c1NC(=O)c1nn(C)cc1Cl,2,-10%,5.7,-25,-8,
COc1ccccc1NC(=O)C[n+]1ccccc1C,/,/,2.5,/,6,
CCOC(=O)Cc1csc(NC(=O)CSc2ncnc3c2cnn3-c2ccccc2Cl)n1,10,-9%,8.7,-35,/,
CCCCCCSc1ccc([C@H]2N[C@@](CC(C)C)(C(=O)OC)[C@H]3C(=O)N(CC)C(=O)[C@@H]23)cc1,/,/,-0.8,/,-5,
CCCCn1c(-c2ccccc2)nnc1-c1ccccc1,6,-10%,1.7,-56,-3,
C/C(N)=C(/C#N)C(=O)COC(=O)CCC1CCCC1,-1,0%,0.6,-4,70,
Cc1ccc(C)c(OC(=O)c2cccnc2)c1,/,/,1.5,/,1,

# Sorted by molecular weight (ascending): part of the list above.
SMILES,Arbovirus inh,Mtb growth,RecA intein inh,YopH inh,Mtb betalactam,others
CCCCn1c(-c2ccccc2)nnc1-c1ccccc1,6,-10%,1.7,-56,-3,
Cc1cccc(C)c1NC(=O)C(c1ccc([N+](=O)[O-])cc1)N1CCCCC1 (stereo unspecified),-3,1%,5.3,-38,-3,
N#CCC(=O)Nc1ccc(C(=O)OCC(=O)NCCCc2ccccc2)cc1,/,/,-0.7,/,5,
CCOC(=O)C1CCCCN1C(=O)c1ccc2nc(Cc3ccc(OC)cc3)oc2c1 (stereo unspecified),/,/,3.9,/,0,
CCCCCCSc1ccc([C@H]2N[C@@](CC(C)C)(C(=O)OC)[C@H]3C(=O)N(CC)C(=O)[C@@H]23)cc1,/,/,-0.8,/,-5,

# Other results
SMILES,Arbovirus inh,Mtb growth,RecA intein inh,YopH inh,Mtb betalactam,others
NC1=NC(=O)C(CC(=O)c2ccc(Cl)cc2)S1 (stereo unspecified),-3,1%,-6.5,-20,0,
O=C(Nc1nc2ccc(Br)cc2s1)c1ccco1,/,/,-0.2,/,-1,
COCCNC(=O)CCc1nnc(Cc2ccc(-c3ccccc3)cc2)o1,-8,6%,0.5,/,2,
O=S(=O)(c1ccc(-c2cc(C(F)(F)F)on2)s1)N1CCCC1,/,6%,-0.6,/,-6,
Cc1nc2ccc(S(=O)(=O)N(C)CC(=O)NCc3ccc4c(c3)OCO4)cc2s1,-14,12%,-1.4,10,0,
CC(=O)OC1c2ccccc2C(=O)N1c1ccccc1C (stereo unspecified),5,3%,1.3,-13,5,
Cc1ccc(S/C(=N\S(=O)(=O)c2ccc(Cl)cc2)c2ccccc2)cc1,-8,9%,0.6,1,67,
Cc1ccc(S(=O)(=O)N(Cc2ccc(Cl)cc2)c2ccccc2C(=O)NCc2cccnc2)cc1,-15,9%,7.4,-23,2,
CC1Oc2ccccc2N(CC(=O)N(Cc2ccccc2)Cc2ccccn2)C1=O (stereo unspecified),7,-3%,-2.0,13,?,
CN(CCC#N)CC(=O)Nc1ccc(S(N)(=O)=O)cc1,-8,2%,0.2,/,0,
CN(C[C@H](CC1CCCCC1)N(C[C@H](Cc1ccccc1)N(CCc1ccccc1)N=O)N=O)N=O,-1,4%,-0.5,/,-7,
O=C(CSCCO)Nc1ccc([N+](=O)[O-])cc1,7,4%,-1.0,/,-3,
c1ccc2c(c1)OCC(c1nnc3sc(-c4cnccn4)nn13)O2 (stereo unspecified),0,-10%,4.0,-3,-5,
Cc1cc(C)c(S(=O)(=O)Nc2cccc(C(=O)O)c2)cc1S(=O)(=O)Nc1cccc(C(=O)O)c1,/,/,0.6,/,8,
O=C(NC(=S)Nc1ccc2c(c1)C(=O)c1ccccc1C2=O)c1ccc(F)cc1,-11,0%,1.6,14,-1,
CCOc1ccccc1Cn1c(=O)sc2ccccc21,2,1%,3.7,/,4,
O=C(N/N=C/c1ccc(Br)cc1)c1ccc(Br)o1,-2,-4%,5.2,-26,1,
CC(CCc1ccccc1)NC(=O)COC(=O)c1ccccc1Br (stereo unspecified),/,/,2.4,/,5,
CCOc1cc(C(=O)NN2CCOCC2)cc(OCC)c1OCC,/,/,-0.5,/,-10,
COc1cc(CNC2CCCCC2)c(Br)cc1OC1CCCC1,3,17%,2.6,/,6,

# Compounds above containing a furan ring, fused or not:
SMILES,Arbovirus inh,Mtb growth,RecA intein inh,YopH inh,Mtb betalactam,others
Cc1ccc(/C=N/NC(=O)c2nnn(-c3nonc3N)c2CN(C)C)o1,/,/,-2.2,/,-5,
Cc1cccc(CS(=O)(=O)Cc2ccc(C(=O)NCc3ccccc3)o2)c1,/,/,-3.0,/,-6,
O=C(O)CCC(=O)NN1C(=O)c2ccccc2NC1c1ccco1 (stereo unspecified),/,-6%,-1.5,/,-2,
O=C(Nc1nc2ccc(Br)cc2s1)c1ccco1,/,/,-0.2,/,-1,
O=C(N/N=C/c1ccc(Br)cc1)c1ccc(Br)o1,-2,-4%,5.2,-26,1,

# High-throughput results from PubChem BioAssay.
